Vaccinia Venus = qHTS for Stage-Specific Inhibitors of Vaccinia Orthopoxvirus: Venus Reporter Primary qHTS; Vaccinia virus Venus reporter expression, fluorescence; Potency, µM (top dose mostly 36.5 µM), for inactives: at the highest dose activity change, negative = inhibition, hits mostly inhibitors; 330,000 compounds, 0.46% hits; active means well fitted inhibition curve with a large enough effect; inconclusive means small, poorly fitted or top-dose-only effect; inactive means no such curve, though single readings can be large or run the other way; tested in A549 cells; also: nearly all actives have a fitted effect of over 30% in size; inactives centre near -10
Vaccinia mCherry = qHTS for Stage-Specific Inhibitors of Vaccinia Orthopoxvirus: mCherry Reporter Primary qHTS; Vaccinia virus mCherry reporter infection, fluorescence; about a quarter of the inactives have no number; Potency, µM (highest dose often 36.5 µM), for the others: at the highest dose activity change, negative = inhibition, usual class: inhibitors; 310,000 compounds, 0.63% hits; active = well fitted inhibition curve with a large enough effect; inconclusive = small, poorly fitted or top-dose-only effect; inactive = no such curve, though single readings can be large or run the other way; tested in A549 cells; also: nearly all actives have a fitted effect of over 35% in size; inactives centre near -10
The depositor's hits bear a star; i = inactive; ? = inconclusive; · = not tested or not shown; & = joins results of further samples; [ ] = dose if it differs, or a comment. % is scaled to controls: 0 for no effect and ±100 for the full control effect; potency is read from the fitted curve at half-maximal effect.

SMILES | Vaccinia Venus | Vaccinia mCherry
Cn1nc([N+](=O)[O-])c(C(C#N)c2nc3ccccc3n2C)c(Cl)c1=O (centres undefined) | 0.5% | -5.6%
COc1cc(Cl)c(NC(=O)CN(C)S(=O)(=O)c2ccc3[nH]c4c(c3c2)CCCC4)c(OC)c1 | ? | ?
Cc1ccc(P(=O)(c2ccc(C)cc2)[C@@H](NC(c2ccccc2)c2ccccc2)c2ccccc2)cc1 | -15.5% | -4.6%
COCCNC(=O)CN1CCCCCC1 | -2.5% | i
Cc1nn(CC#N)c(=O)n1-c1cccc(F)c1 | 1.5% | -8.9%
CCN(CC)CCCNC(=O)c1cn(CC(C)C)c(=O)c2c1c1ccccc1n2C | -19.3%&-6.6% | -27.9%&-16.9%
COc1cc(/C=C(\C#N)c2ccccn2)ccc1OCc1ccccc1Cl | 4.2% | -4.3%
Cc1ccc(/C(N)=N/OC(=O)CCc2ccccc2)cc1 | -16.9% | -1.1%
O=C1Nc2ccc(S(=O)(=O)Nc3ccccc3O)c3cccc1c23 | -9.7% | -25.1%
O=c1[nH]ncc(N/N=C\c2ccc(O)cc2O)c1Cl | -16.7% | -16.8%

Some of the entries above in another layout:
> Cc1ccc(P(=O)(c2ccc(C)cc2)[C@@H](NC(c2ccccc2)c2ccccc2)c2ccccc2)cc1
  Vaccinia Venus = -15.5% | Vaccinia mCherry = -4.6%

> COCCNC(=O)CN1CCCCCC1
  Vaccinia Venus = -2.5% | Vaccinia mCherry = i

> Cc1nn(CC#N)c(=O)n1-c1cccc(F)c1
  Vaccinia Venus = 1.5% | Vaccinia mCherry = -8.9%

> CCN(CC)CCCNC(=O)c1cn(CC(C)C)c(=O)c2c1c1ccccc1n2C
  Vaccinia Venus = -19.3%&-6.6% | Vaccinia mCherry = -27.9%&-16.9%

(next part)
SMILES | Vaccinia Venus | Vaccinia mCherry
CC(=O)OCC(=O)C1(O)CCC2C3CCC4C(OC(C)=O)C(=O)CCC4(C)C3C(=O)CC21C (centres undefined) | -4.1% | -15.8%
Cc1nonc1NCn1nnc2ccccc21 | -17.5% | -14.6%
O=[N+]([O-])c1ccc(NCc2ccc(Cl)cc2)nc1 | -26.6% | i
O=C(NCCS(=O)(=O)c1ccc(Br)cc1)c1ccc(Cl)cc1 | -21.5% | i
Cc1ccc(NC2CCCN(C(=O)c3cc(C(C)C)[nH]n3)C2)cc1C (centres undefined) | -9.7% | i
CCc1nc2c(OCCOC)cccn2c1N(C)C(=O)c1ccc(C)cc1 | -6.1% | i
Cc1cc(NCc2ccccn2)n2nc(C)c(-c3ccc(Cl)cc3)c2n1 | ? | ?
CCOc1ccccc1C(=O)NCC(=O)OCC(=O)c1ccc2c(c1)OCCO2 | -8.5% | -12.6%
CC(C)c1nc2sc3c(=O)[nH]c(=S)[nH]c3c2c2c1CCCC2 | 5.3% | i
CC1(C)CC(=O)C=C(c2n[nH]nc2C2CC2)C1 | -11.0% | -24.7%
COc1ccc(CC(NC(C)=O)C(=O)NC2CCN(C(=O)NCc3ccccc3)CC2)cc1OC (centres undefined) | 1.2% | -4.9%
CC(C)(C)C1CCc2nc(NC(=O)Cc3cn4ccsc4n3)sc2C1 (centres undefined) | ? | ·
O=C(CSc1cn(CCNC(=O)c2c(F)cccc2F)c2ccccc12)NCC1CCCO1 (centres undefined) | -16.7% | -24.2%
COc1ccc(NC(=O)C(c2ccc(OC)cc2)N(C)C(=O)c2cnccn2)cc1 (centres undefined) | -16.8% | i
COC(=O)c1[nH]c2ccc(Br)cc2c1NC(=O)CN1CCCc2ccccc21 | -5.8% | -0.6%
C[C@H]1CN([C@@H](C)CO)S(=O)(=O)c2ccc(Br)cc2O[C@H]1CN(C)C(=O)c1cccc(F)c1 | -10.8% | -13.0%
CCCNC(=O)C(Cc1cccc(Br)c1)NC(=O)c1ccc(C#N)cc1 (centres undefined) | -17.6% | -17.1%
CC1(C)CC(=O)C=C(c2ccc(COC(=O)Cc3ccccc3)cc2)C1=O | -4.6% | -1.5%
COc1cc(Cl)c(C)cc1N1C(=O)[C@@H]2C[C@H]1CN2Cc1ccccn1 | -2.3% | -8.0%
CCn1cc(C(=O)NCCc2ccc(Cl)cc2)c(=O)c2cc(S(=O)(=O)N3CCCCCC3)ccc21 | 3.2% | -7.4%
O=C(/C=C/c1ccccc1F)c1ccoc1 | ? | ·
Cc1ccc(S(=O)(=O)NCCC(=O)NCCc2ccccc2)cc1 | 4.1% | i
c1ccc(CN2CC[C@@H](Nc3nccn4ccnc34)C2)cc1 | -1.2% | -23.3%
CCOC(=O)c1c(NC(=O)CSc2nnnn2-c2ccccc2)sc2c1CCC(C)C2 (centres undefined) | -10.4% | ·
N#Cc1cccc(C(=O)Nc2ccccc2C(=O)NC2CC2)c1 | 6.9% | 6.2%
COCCn1c(CN2CCN(c3cccc(Cl)c3)CC2)nc2c1c(=O)n(C)c(=O)n2C | ? | -18.3%
Cc1ccc(-n2c(=O)c3c(C)c(C(=O)N(C)C)sc3n(Cc3ccccc3C)c2=O)cc1C | -11.6% | -7.2%
COc1cc(-c2noc(-c3cc(C(C)C)[nH]n3)n2)cc(OC)c1OC | -11.0% | -9.5%
Cc1nc2n[nH]c(N)c2nc1C | -5.0% | i
CC(=O)OC1CCC2(C)C(=CC(=O)C3C2CCC2(C)C(OC(C)=O)CCC32)C1 (centres undefined) | -5.2% | -12.6%

Record cards, from the list above.
Results for Cc1ccc(-n2c(=O)c3c(C)c(C(=O)N(C)C)sc3n(Cc3ccccc3C)c2=O)cc1C → Vaccinia Venus: -11.6%; Vaccinia mCherry: -7.2%
Results for N#Cc1cccc(C(=O)Nc2ccccc2C(=O)NC2CC2)c1 → Vaccinia Venus: 6.9%; Vaccinia mCherry: 6.2%

Remaining list, next part:
SMILES | Vaccinia Venus | Vaccinia mCherry
CNC(=O)C1CC(=O)N(CCc2ccc(C)cc2)C1 (centres undefined) | -6.1% | -13.5%
Clc1ccc(CNc2nc(CN3CCOCC3)nc3scc(-c4ccccc4)c23)cc1 | ? | ?
CN(C)S(=O)(=O)c1ccc2c(c1)c(=O)c(C(=O)N1CCN(c3ccccn3)CC1)cn2C | -4.3% | -12.6%
CNC(=S)NC1CC2CCC(C1)N2Cc1ccccc1 (centres undefined) | -7.2% | i
Cc1nc(NC(=O)CCC(=O)O)sc1C(=O)N(C)C | -9.1% | ·
COc1ccc(-c2cc(C(=O)Nc3sc4c(c3C#N)CCCC4)no2)cc1OC | 3.3% | 6.5%
c1ccc(-c2ccc3ncccc3n2)cc1 | -6.1% | i
CN(N=Cc1cccc2cccnc12)c1ccc([N+](=O)[O-])cc1[N+](=O)[O-] | -1.7% | i
O=C(C[C@H]1CC[C@@H]2[C@H](COC[C@H](O)CN2Cc2nccs2)O1)NCc1ccccc1Cl | -14.4% | -6.1%
CCCn1cc(CN2CCC(n3nccc3NC(=O)c3ccccc3)CC2)c(C)n1 | -2.3% | -10.0%
CN(Cc1cccnc1)C(=O)CC1C(=O)NCCN1CC(c1ccccc1)c1ccccc1 (centres undefined) | 6.1% | i
Fc1ccc(-c2csc(NC3=NCCC3)n2)cc1 | -5.4% | -1.1%
CO/N=C(/C(=O)NC1C(=O)N2C(C(=O)O)=C(CSc3nc(=O)c(O)nn3C)CSC12)c1csc(N)n1 (centres undefined) | -7.8% | i
O=C(Nc1ccc(N2CCOCC2)cc1)c1cc(F)c(F)cc1Cl | -14.0% | -14.0%
CCOC(=O)c1c(C)[nH]c(C)c1S(=O)(=O)N1CCC(C(=O)Nc2ccc(F)cc2F)CC1 | -4.1% | -13.3%
Nc1nnc(SCC(=O)N2CCN(c3ccccc3)CC2)s1 | -11.7% | -8.7%
CCCc1cc(=O)[nH]c(SCC(=O)c2ccc(S(=O)(=O)N3CCCC3)cc2)n1 | ? | ?
NC(=O)Cn1cc(/C=N/NC(=O)c2ccc(Cn3cc(Cl)cn3)o2)c(-c2ccccc2)n1 | -5.8% | i
Cc1ccccc1NC(=O)c1ccc2c(c1)CCN2S(C)(=O)=O | -12.0% | -2.4%
COC(=O)CN1C(c2ccc(Cl)cc2)=Nc2ccc(Cl)cc2C1c1ccccc1 (centres undefined) | -20.5% | -2.8%
O=C(NCc1ccccn1)c1cn(Cc2ccccc2)nn1 | -10.7% | -8.7%
C=C(C)c1ccc(C(C)(C)NC(=O)N2CCN(C)CC2)cc1 | -8.1% | ·
CCC(C)NC(=O)c1cc2cc3ccc(OC)cc3nc2o1 (centres undefined) | -6.7% | -11.4%
O=C(CSc1ncc(C(=O)O)n1-c1ccc(F)cc1)NCc1ccc2c(c1)OCO2 | 0.9% | -3.3%
Cc1ccc2cc3c(NC(=O)c4cccnc4)nn(C)c3nc2c1 | -14.1% | ·
CSc1ccccc1NC(=O)COC(=O)c1ccc(O)cc1 | -4.9% | i
Cn1nc(-c2ccccc2)cc1NC(=O)Nc1ccccc1F | -9.7% | -4.8%
Cn1cc(C=O)c2cc(F)ccc21 | -9.7% | -12.9%
CNC(=S)N/N=C/c1cn(Cc2ccc(C)cc2)c2ccccc12 | ? | ?
CC(C)Oc1ccc(CNC(=O)c2cccc(NC(=O)c3nsc4ccccc34)c2)cc1 | -9.2% | -5.5%
CCOC(=O)C(=O)N1CCN(CC)CC1 | 0.9% | -12.6%
CC(C)(C)NC(=O)C(c1ccncc1)N(C(=O)Cn1nnc(-c2ccc(F)cc2)n1)c1ccccc1 (centres undefined) | 2.0% | -5.9%
O=C(O)CCCCC1SCC2NC(=O)NC21 (centres undefined) | -0.9%&-1.5% | -13.4%&-6.6%
Cc1ccc(C)c(N(CC(=O)NC2CCCC2)C(=O)CNC(=O)c2cccs2)c1 | -1.5% | 0.4%
C=CCNc1ncnc2c1cnn2-c1cccc(C)c1 | -2.7% | 6.1%
CCOC(=O)C(NC(=O)c1ccccc1Cl)(Nc1ccc(C)c(C)c1)C(F)(F)F (centres undefined) | -11.4% | -4.4%
O=C(Cn1cncn1)NCc1ccc(Cl)cc1 | -13.2% | -10.0%
COc1ccccc1NC(=O)NC1(C(=O)N2CCC(C)CC2)CCCCC1 | 1.9% | -13.5%
CN1CCN(c2nc(-c3cccc(NS(C)(=O)=O)c3)nc3ccccc23)CC1 | 110.9%[activator] | 71.1%[activator]
COc1cc(/C=N/NC(=O)C(=O)NCc2ccco2)cc(Br)c1O | 4.0% | -14.6%
CC1(c2ccccc2)O[C@@H]2C[C@H]3[C@@H]4CCC5=CC(=O)C=C[C@]5(C)[C@@]4(F)[C@@H](O)C[C@]3(C)[C@]2(C(=O)CO)O1 (some centres undefined) | ? | ?
Cc1ccc(NC(=O)C2CCN(S(=O)(=O)c3ccc4c(c3)CC(C)N4C(=O)C3CCC3)CC2)nc1 (centres undefined) | ? | -10.5%
COCCCNC(=O)c1cc2c(-c3ccc(Cl)cc3)nn(C)c2s1 | -3.1% | 3.2%
Cc1cc(S(=O)(=O)N2CCN(C(=O)CCC(=O)N3CCOCC3)CC2)ccc1Br | -15.8% | -11.5%
Cc1ccc(C(=O)N2CCN(c3ncccn3)CC2)cc1NC1=NC2CS(=O)(=O)CC2S1 (centres undefined) | 11.4% | -10.0%
CC(=O)Nc1cc(C(=O)N2CCc3c(Cl)cccc3C2)cc2ncn(CCc3ccccn3)c12 | 8.0% | -9.6%
C=C1C(=O)O[C@@H]2C[C@@H](C)[C@@H]3C=CC(=O)[C@@]3(C)[C@@H](OC(C)=O)[C@H]12 | 7.94µM* | 11.2µM*
CCc1nnc(NC(=O)Cc2ccc(Br)cc2)s1 | -10.6% | -12.0%
Cc1oc(-c2ccccc2Cl)nc1CS(=O)CC(=O)NCc1ccc(Cl)cc1 (centres undefined) | -18.4%&-10.7% | -10.3%
CC(=NNC(=O)c1ccncc1)c1ccccc1Cl | -1.6% | -14.1%

Quoted at random: 3 compounds from above
SMILES | Vaccinia Venus | Vaccinia mCherry
CN(C)S(=O)(=O)c1ccc2c(c1)c(=O)c(C(=O)N1CCN(c3ccccn3)CC1)cn2C | -4.3% | -12.6%
Cn1nc(-c2ccccc2)cc1NC(=O)Nc1ccccc1F | -9.7% | -4.8%
CC1(C)CC(=O)C=C(c2n[nH]nc2C2CC2)C1 | -11.0% | -24.7%

Continuation.
SMILES | Vaccinia Venus | Vaccinia mCherry
COc1ccc(-c2[nH]nc(-c3ccccc3)c2-c2nc3ccccc3[nH]2)cc1 | -11.5% | -14.1%
N#Cc1c(-c2ccccc2)cc2nc3ccccc3n2c1N | -12.8% | i
Cc1ccc(NC(=O)COC(=O)Cc2c[nH]c3ccccc23)cc1 | -8.6% | i
Cc1ccc(C)c(OCCN2C(=O)NC3(CCc4ccccc4C3)C2=O)c1 (centres undefined) | -23.4% | ?
COc1ccc(NC(=O)c2c(C)oc3ccc(O)c(CN4CCCC(C)C4)c23)cc1Cl (centres undefined) | -27.1% | -28.3%
COc1ccccc1NC(=O)Nc1ccc2c(c1)nc(C)n2C | 4.6% | -10.1%
COCCNC(=O)C1CCCN(C(=O)c2cc(-c3cccs3)oc2C)CC1 (centres undefined) | 2.9% | i
Cc1ccc(C(=O)NCC(=O)NCC(=O)OCC(=O)c2ccc(F)cc2)cc1 | -4.6% | -11.2%
COc1ccc(NC(=O)N(C)C[C@H]2Oc3ccc(NS(=O)(=O)c4cccs4)cc3C(=O)N([C@H](C)CO)C[C@@H]2C)cc1 | -9.8% | i
COc1ccc(-c2nc3cc(C)ccc3cc2CN(C(=O)c2cccs2)C2CC2)cc1OC | -11.1% | -16.4%
Cc1ccc(/C=C(\C#N)C(=O)Nc2cccc(C)n2)cc1 | -13.5% | -2.3%
Nc1cc(Cl)ccc1C(=O)OCC(=O)NCC1CCCO1 (centres undefined) | 0.6% | -11.3%
